Screens deposited in PubChem BioAssay by National Center for Advancing Translational Sciences (NCATS).
CCT modulator – changes cytosolic chaperonin activity | purified chaperonin ATPase assay, HTRF ADP detection, 30 min | activity change, % (test concentration not listed), hits read low | hit rate 0.3% among 360,000 | AID 651819; in the data active = activity change below about -30%; also: % is scaled to controls: 0 for no effect and ±100 for the full control effect
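TRiC (40 or 20 nM final, by batch activity) in 30 mM Tris pH 7.4, 100 mM KCl, 5 mM MgCl2, 1 mM DTT was treated with compound at 76 uM single dose, then 10 uM ATP, 30 min at 37 °C. ADP was read by HTRF Transcreener.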
EPAC2 antag – EPAC2 (human) antagonism | Q8WZA2 | EPAC2 GEF exchange of Rap1B-BODIPY-GDP, fluorescence | Potency, µM (titrated, usually from 114 µM), for inactives: top-dose activity, negative = inhibition, usual class: inhibitors | hit rate 0.18% among 360,000 | AID 720708; also: potency is read from the fitted curve at half-maximal effect; % is scaled to controls: 0 for no effect and ±100 for the full control effect; nearly all actives have a fitted effect of over 45% in size; many of its hits are not listed in these tables
Target sequence (Q8WZA2 whole entry, looked up): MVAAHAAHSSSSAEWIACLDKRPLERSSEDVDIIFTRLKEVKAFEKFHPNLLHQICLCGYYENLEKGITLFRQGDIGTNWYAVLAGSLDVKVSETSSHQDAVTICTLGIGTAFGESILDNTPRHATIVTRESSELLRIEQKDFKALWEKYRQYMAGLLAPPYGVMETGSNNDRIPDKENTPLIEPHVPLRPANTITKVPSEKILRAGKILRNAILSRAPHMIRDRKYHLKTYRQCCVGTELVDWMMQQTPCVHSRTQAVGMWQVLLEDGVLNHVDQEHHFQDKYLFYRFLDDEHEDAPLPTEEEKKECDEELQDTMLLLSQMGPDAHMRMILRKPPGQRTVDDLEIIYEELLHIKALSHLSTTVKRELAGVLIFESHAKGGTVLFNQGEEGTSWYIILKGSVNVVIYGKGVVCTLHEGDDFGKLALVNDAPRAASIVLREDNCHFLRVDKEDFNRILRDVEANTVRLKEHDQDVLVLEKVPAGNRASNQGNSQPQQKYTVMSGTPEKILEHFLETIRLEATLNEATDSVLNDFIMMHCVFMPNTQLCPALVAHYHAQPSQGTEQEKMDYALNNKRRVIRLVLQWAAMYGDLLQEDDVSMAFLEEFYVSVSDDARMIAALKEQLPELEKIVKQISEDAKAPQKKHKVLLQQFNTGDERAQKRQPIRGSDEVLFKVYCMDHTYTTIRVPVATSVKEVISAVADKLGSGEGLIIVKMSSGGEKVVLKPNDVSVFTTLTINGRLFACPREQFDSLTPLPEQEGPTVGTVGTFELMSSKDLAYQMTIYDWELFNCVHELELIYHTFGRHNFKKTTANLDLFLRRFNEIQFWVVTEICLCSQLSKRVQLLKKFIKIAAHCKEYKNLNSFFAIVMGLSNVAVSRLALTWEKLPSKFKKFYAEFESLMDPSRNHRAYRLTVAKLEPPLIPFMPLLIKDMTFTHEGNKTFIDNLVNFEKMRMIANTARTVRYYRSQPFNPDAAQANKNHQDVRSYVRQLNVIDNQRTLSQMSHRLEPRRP
PTHR1 ag – activates the human parathyroid hormone receptor PTHR1 | Q03431 | HEK293 GP2 PTHR1 cells, GloSensor cAMP luminescence, 1 h | Potency, µM (doses to about 115 µM), inactives show at the highest dose activation, usual class: activators | hit rate 0.075% among 410,000 | AID 743266; also: potency is read from the fitted curve at half-maximal effect; nearly all actives have a fitted effect of over 55% in size; some results filed as inactive show a strong effect at the top dose; inactives centre near -15; many of its hits are not listed in these tables
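HEK-293-derived GP2 cells expressing PTHR1 and a GloSensor cAMP reporter, 3,000/well, plated overnight, given luciferin plus IBMX (each 0.5 mM as added) for 1 h at 37 °C, then compound for 1 h at 37 °C. Luminescence was read after 15 min at room temperature.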
pAkt inh – inhibitors of Akt phosphorylation; Neuro2A IGF-stimulated pAkt S473 HTRF, 20 min; stronger effect = lower value; activity change, % for hits at 50 µM; hit rate 0.32% among 360,000; AID 651550; in the data active = activity change below about -80%; inconclusive = mostly about -51% to -80%; also: % is scaled to controls: 0 for no effect and ±100 for the full control effect
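Neuro2A cells in DMEM with 0.5% FBS, overnight at 37 deg C, given compound at single 50 µM final, then IGF (6 nM final) for 20 min at 37 deg C. Lysed; phospho-Akt Ser473 by HTRF after 24 h, 665/615 ratio.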
EPAC2 ag – EPAC2 (human) agonism. EPAC2 activation, biochemical qHTS; response scale: 100% = 6.5 mM cAMP response. Potency, µM (series often up to 154 µM), inactives show at the top dose activation, usual class: activators. hit rate 0.079% among 360,000; also: potency is read from the fitted curve at half-maximal effect; nearly all actives have a fitted effect of over 50% in size
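Fluorescence exchange assay: 100 nM EPAC2 with 250 nM RAP1B-BODIPY-GDP and 50 uM GDP; compounds tested as a concentration-titration series (qHTS). Loss of Rap1-bound BODIPY-GDP fluorescence read at 480/540 nm; data normalized to 6.5 mM cAMP.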
Mm-Cpn inhibitor – M. maripaludis TRiC chaperonin inhibition | purified Mm-Cpn ATPase, ADP Transcreener TR-FRET | Potency, µM (doses to about 76.9 µM), for inactives: top-dose activity, negative = inhibition, actives largely listed as inhibitors | hit rate 0.031% among 330,000 | AID 504842; also: potency is read from the fitted curve at half-maximal effect; % is scaled to controls: 0 for no effect and ±100 for the full control effect; nearly all actives have a fitted effect of over 80% in size
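25 nM Mm-CPN + cpd, 10 min 37°C; + 10 uM ATP, 30 min 37°C; buffer 30 mM Tris pH 7.4, 100 mM KCl, 5 mM MgCl2, 1 mM DTT; Transcreener ADP HTRF detection 30 min RT.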
* marks the source's active call; other numbers are inactive results; i = inactive; ? = inconclusive; nt = no result given; & = joins results of further samples; [ ] = remark or other dose. Unless noted, calls follow the shape of the dose curve; as a rule, active = well fitted curve in the direction sought with a large enough effect; inconclusive = small, poorly fitted or top-dose-only effect, or another doubt; inactive = no such curve, though single readings can be large; an effect the other way counts as inactive or inconclusive. Not all compounds are listed, so the mix of outcomes need not match the whole.

SMILES	CCT modulator	EPAC2 antag	PTHR1 ag	pAkt inh	EPAC2 ag	Mm-Cpn inhibitor
O=C(CCCN1CCC(O)(c2ccc(Cl)cc2)CC1)c1ccc(F)cc1	-2.5	-9%	i	i	11%	-7%[15.4 µM]
OC[C@@H](O)[C@@H](O[C@@H]1O[C@H](CO)[C@H](O)[C@H](O)[C@H]1O)[C@H](O)[C@@H](O)CO	0.3	4%	-29%	i	-5%	nt
O=C1O[C@@H]([C@H](O)CO)C(O)=C1O	0.5	-11%	-4%	i	1%	nt
CC(C)NCC(O)COc1cccc2[nH]ccc12 (stereo unspecified)	nt	nt	nt	nt	nt	-1%
CCOC(=O)C1=C(COCCN)NC(C)=C(C(=O)OC)C1c1ccccc1Cl (stereo unspecified)	-3.3&-1.2&-2.6	1%&10%&12%	?	i	7%&6%&-1%	0%&-3%
O=C1O[C@H]([C@@H](O)CO)C(O)=C1O	-0.4	9%	-24%	i	4%	-3%
Clc1ccc2c(c1)C(N1CCNCC1)=Nc1ccccc1O2	1.2	3%	i	i	-4%	-1%
CN1CCN2c3ncccc3Cc3ccccc3[C@@H]2C1	-0.1	9%	-28%	i	-1%	2%
CCc1c(C)[nH]c2c1C(=O)C(CN1CCOCC1)CC2 (stereo unspecified)	-0.8	17%	i	i	-6%	nt
CC(C(=O)O)c1cccc(C(=O)c2ccccc2)c1 (stereo unspecified)	-6.4	-3%	i	i	2%	-10%&0%
CC(=O)Nc1nnc(S(N)(=O)=O)s1	-1.2	4%	i	i	6%	-4%
COc1ccc(NS(=O)(=O)c2ccc(N)cc2)nn1	nt	nt	nt	nt	nt	0%[15.4 µM]
CCCCc1nc(Cl)c(CO)n1Cc1ccc(-c2ccccc2-c2nn[nH]n2)cc1	-2.8	-9%	-22%	i	4%	1%
NCCCC[C@H](N[C@@H](CCc1ccccc1)C(=O)O)C(=O)N1CCC[C@H]1C(=O)O	1.7&0.5	6%&-3%	-15%	i	1%&-8%	0%&1%
COc1cc(Cc2cnc(N)nc2N)cc(OC)c1OC	1.0&1.3	?	-7%&-24%	i	6%&1%	1%&-2%
CCCNC(C)(C)COC(=O)c1ccccc1	-2.5	8%	i	i	3%	-1%
Cc1ncc(C[n+]2csc(CCO)c2C)c(N)n1	-2.4&1.6	13%&16%	-24%&-27%	i	2%&-2%	-2%&1%
O=C(O)COCCN1CCN(C(c2ccccc2)c2ccc(Cl)cc2)CC1 (stereo unspecified)	0.9	2%	i	i	13%	0%
CC(=O)OCC(=O)[C@@]1(O)CC[C@H]2[C@@H]3CCC4=CC(=O)CC[C@]4(C)[C@H]3C(=O)C[C@@]21C	-0.8	6%	-22%	i	-2%	3%
CC1=C(CC(=O)O)c2cc(F)ccc2/C1=C/c1ccc(S(C)=O)cc1 (stereo unspecified)	-1.7	4%	?	i	4%	-1%
CCCN(CCc1ccccc1)C1CCc2c(O)cccc2C1 (stereo unspecified)	0.2	-9%	-6%	i	9%	nt
O=C(O)c1cccnc1	-0.1	-4%	-24%	i	7%	2%
CC(C)NC[C@@H](O)COc1ccc(CC(N)=O)cc1	-1.5	9%	-26%	nt	1%	-2%
CNCC[C@H](Oc1ccc(C(F)(F)F)cc1)c1ccccc1	-5.1	4%	i	nt	9%	-8%
CC1(C)S[C@@H]2[C@H](NC(=O)Cc3ccccc3)C(=O)N2[C@H]1C(=O)O	0.9&-2.3	6%&7%	-10%&-2%	i	6%&2%	0%&2%
OC(CCN1CCCC1)(c1ccccc1)C1CCCCC1 (stereo unspecified)	-0.3	6%	-1%	i	-1%	-1%
Cc1[nH]cnc1CN1CCc2c(c3ccccc3n2C)C1=O	-1.5	15%	-2%	i	0%	nt
NC[C@H](O)c1ccc(O)c(O)c1	-3.9	7%	?	nt	11%	-4%
CCC(CO)NCCNC(CC)CO (stereo unspecified)	0.8	-15%	i	i	4%	1%[15.4 µM]
CC[C@H](CO)NCCN[C@H](CC)CO	-0.5	9%	-17%	i	4%	-2%
Cc1cccc(C)c1NC(=O)CN1CCN(CCCC(c2ccc(F)cc2)c2ccc(F)cc2)CC1	-0.2	-17%	-47%[inhibitor]	i	0%	-1%
O=C(NC(CO)C(O)c1ccc([N+](=O)[O-])cc1)C(Cl)Cl (stereo unspecified)	-1.1	7%	-12%	i	8%	0%
COc1ccccc1OCC(O)CO (stereo unspecified)	-0.7	-6%	-11%	i	6%	1%
CC12CCC3c4ccc(O)cc4CCC3C1CCC2=O (stereo unspecified)	0.7	-9%	i	i	3%	-1%
CC1CS(=O)(=O)CCN1N=Cc1ccc([N+](=O)[O-])o1 (stereo unspecified)	-2.1	-2%	i	i	1%	-1%
COc1ccc2c(c1OC)C(=O)O[C@@H]2[C@H]1c2c(cc3c(c2OC)OCO3)CCN1C	nt	-10%	i	nt	3%	1%
C[C@H]1C[C@H]2[C@@H]3CCC4=CC(=O)C=C[C@]4(C)[C@@]3(F)[C@@H](O)C[C@]2(C)[C@@]1(O)C(=O)CO	-0.1	0%	-3%	i	6%	nt
CC[C@H](C)[C@H]1O[C@]2(CC[C@@H]1C)C[C@@H]1C[C@@H](CC=C(C)[C@@H](O[C@H]3C[C@H](OC)[C@@H](O[C@H]4C[C@H](OC)[C@@H](O)[C@H](C)O4)[C@H](C)O3)[C@@H](C)C=CC=C3CO[C@@H]4[C@H](O)C(C)=C[C@@H](C(=O)O1)[C@]34O)O2	-1.0	-20%	-61%[inhibitor]	i	-17%	nt
CC1(C)O[C@@H]2C[C@H]3[C@@H]4C[C@H](F)C5=CC(=O)C=C[C@]5(C)[C@H]4[C@@H](O)C[C@]3(C)[C@]2(C(=O)CO)O1	-3.5	-11%	i	i	-1%	0%
CCc1cccc2c3c([nH]c12)C(CC)(CC(=O)O)OCC3 (stereo unspecified)	0.1	-16%	-4%	i	-15%	2%
CCOc1ccc(NC(C)=O)cc1	-2.9	5%	-1%	i	3%	-21%
CCN(CC)Cc1cc(Nc2ccnc3cc(Cl)ccc23)ccc1O	-0.3&-0.3	-13%&6%	-15%&-6%	i	5%&-2%	-1%&0%
Oc1cc2c(cc1O)C(c1ccccc1)CNCC2 (stereo unspecified)	0.2	-1%	-24%	i	2%	nt
C=CC[N@@+]12CC[C@]34c5ccccc5N5/C=C6\C7N(/C=C(\C53)[C@@H](C[C@@H]41)/C(=C/CO)C2)c1ccccc1[C@@]71CC[N@@+]2(CC=C)C/C(=C\CO)[C@@H]6C[C@@H]12 (stereo partly specified)	-2.2	6%	i	i	2%	-5%
CCN(CC)CCOc1ccc(/C(=C(\Cl)c2ccccc2)c2ccccc2)cc1	-1.5	-27%	-2%	i	9%	1%
CN1CCCC(n2nc(Cc3ccc(Cl)cc3)c3ccccc3c2=O)CC1 (stereo unspecified)	-2.3	-4%	5%	i	9%	nt
CCCCc1oc2ccccc2c1C(=O)c1cc(I)c(OCCN(CC)CC)c(I)c1	-0.3	5%	-1%	i	-1%	-4%[15.4 µM]
O=C(O)[C@@H](O)[C@H](O)C(=O)O	-2.1	-1%	-5%	i	5%	nt
CC(O)Cn1cnc2c1c(=O)n(C)c(=O)n2C (stereo unspecified)	-0.9	-8%	-20%	i	2%	1%
CC1(C)[C@H](C(=O)O)N2C(=O)C[C@H]2S1(=O)=O	1.2	19%	-9%	i	2%	nt
CC(C)(C)[C@]1(O)CCN2C[C@H]3c4ccccc4CCc4cccc(c43)[C@@H]2C1	0.1	-10%	-54%	i	1%	-3%
O=C(O)Cc1ccc(-c2ccccc2)cc1	1.0	-12%	2%	i	0%	-2%[15.4 µM]
CC/C(=C(/CC)c1ccc(O)cc1)c1ccc(O)cc1	-4.5	-21%	-16%	i	15%	3%
O=C1N=C(O)CN1/N=C/c1ccc(-c2ccc([N+](=O)[O-])cc2)o1	1.0	-18%	7%	i	-1%	nt
CO/N=C(\C(=O)N[C@@H]1C(=O)N2C(C(=O)O)=C(COC(C)=O)CS[C@H]12)c1csc(N)n1 (stereo in doubt)	-3.4&-3.7&-0.4	0%&1%&3%	-18%&-24%&-11%	i	3%&7%&-2%	0%&-1%&-3%
CC1(C)S[C@@H]2[C@H](NC(=O)[C@H](C(=O)O)c3ccsc3)C(=O)N2[C@H]1C(=O)O	nt	nt	nt	nt	nt	0%
CN1CCN2c3ccccc3Cc3ccccc3C2C1 (stereo unspecified)	1.1	-21%	-12%	i	0%	0%
Cc1ccnc(NS(=O)(=O)c2ccc(N)cc2)n1	0.4	-9%	i	i	7%	1%[15.4 µM]
COc1ccc(OC)c(C(O)CNC(=O)CN)c1 (stereo unspecified)	-3.2	8%	-24%	i	2%	1%
OC(CCN1CCCCC1)(c1ccccc1)C1C[C@@H]2C=C[C@H]1C2 (stereo partly specified)	-2.5	13%	-20%	i	6%	0%
(listing goes on)
SMILES	CCT modulator	EPAC2 antag	PTHR1 ag	pAkt inh	EPAC2 ag	Mm-Cpn inhibitor
CC(=O)OCC(=O)[C@@]12OC(C)(C)O[C@@H]1C[C@H]1[C@@H]3C[C@H](F)C4=CC(=O)C=C[C@]4(C)[C@@]3(F)[C@@H](O)C[C@@]12C	-2.6	4%	-12%	i	-7%	-7%
Cn1cnc([N+](=O)[O-])c1Sc1ncnc2nc[nH]c12	-3.0	-1%	-9%	i	10%	1%
CCOc1ccccc1O[C@H](c1ccccc1)[C@H]1CNCCO1	-0.5	-14%	-23%	i	6%	1%
Nc1ncnc2c1ncn2[C@@H]1O[C@H](CO)[C@@H](O)[C@@H]1O	0.2	8%	-1%	i	8%	nt
CN1CCN(C2=Nc3cc(Cl)ccc3Nc3ccccc32)CC1	-1.6	9%	i	i	0%	-1%
O=c1[nH]c(=O)n([C@H]2C[C@H](O)[C@@H](CO)O2)cc1C(F)(F)F	0.0	1%	-8%	i	2%	3%
COCCc1ccc(OCC(O)CNC(C)C)cc1 (stereo unspecified)	2.2&1.1&-4.5	-8%&-5%&11%	-3%&-8%	i	-6%&-3%&10%	2%&1%&0%
NC(CO)C(=O)NNCc1ccc(O)c(O)c1O (stereo unspecified)	-1.5	8%	-19%	i	10%	-20%[15.4 µM]
Nc1c2c(nc3ccccc13)CCCC2	-0.1&-1.7	-13%&4%	-22%	i	2%&5%	-2%
CC1C=CC=CC=CC=CC=CC=CC=CC(OC2OC(C)C(O)C(N)C2O)CC2OC(O)(CC(O)CC(O)C(O)CCC(O)CC(O)CC(=O)OC(C)C(C)C1O)CC(O)C2C(=O)O (stereo unspecified)	-0.8	-1%	-13%	i	-23%	nt

Entries of single compounds, looked up by structure. Screens in order: CCT modulator, EPAC2 antag, PTHR1 ag, pAkt inh, EPAC2 ag, Mm-Cpn inhibitor
Nc1ncnc2c1ncn2[C@@H]1O[C@H](CO)[C@@H](O)[C@@H]1O as listed: 0.2, 8%, -1%, i, 8%, nt
COCCc1ccc(OCC(O)CNC(C)C)cc1 (stereo unspecified) as listed: 2.2&1.1&-4.5, -8%&-5%&11%, -3%&-8%, i, -6%&-3%&10%, 2%&1%&0%
CN1CCN(C2=Nc3cc(Cl)ccc3Nc3ccccc32)CC1 as listed: -1.6, 9%, i, i, 0%, -1%
NC(CO)C(=O)NNCc1ccc(O)c(O)c1O (stereo unspecified) as listed: -1.5, 8%, -19%, i, 10%, -20%[15.4 µM]
